Bioassay records (PubChem BioAssay)
LASV entry inh = blocks Lassa virus binding to or entry into cells | Potency, µM (doses to about 37.9 µM), for inactives: at the highest dose activity change, negative = inhibition, actives largely listed as inhibitors | 300,000 tested, 1.2% active | Lassa virus pseudotype entry inhibition, cell reporter; control for the full effect not named in the record | AID 540256; active means well fitted inhibition curve with a large enough effect; inconclusive means small, poorly fitted or top-dose-only effect, or effect the other way; inactive means flat fitted curve, though single readings scatter; tested in HEK293 cells; note: % is set by controls: 0 for no effect and ±100 for the full control effect; nearly all actives have a fitted effect of over 50% in size; luciferase read-out
Cruzain inh Det = inhibitors of Trypanosoma cruzi cruzain with detergent | 200,000 tested, 0.43% active | P25779 | Potency, µM, inactives show max response, negative = inhibition, hits mostly inhibitors | AID 1478 | purified cruzain, Z-FR-AMC fluorescence, 0.01% Triton; active = well fitted curve in the direction sought with a large enough effect; inconclusive = small, poorly fitted or top-dose-only effect, or another doubt; inactive = no such curve, though single readings can be large; an effect the other way counts as inactive or inconclusive;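 note: plate controls were neutral wells for no effect and buffer without enzyme for full effect; nearly all actives have a fitted effect of over 40% in size; top concentration of the series not given in the record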
Target sequence (P25779 123-467 limits assumed): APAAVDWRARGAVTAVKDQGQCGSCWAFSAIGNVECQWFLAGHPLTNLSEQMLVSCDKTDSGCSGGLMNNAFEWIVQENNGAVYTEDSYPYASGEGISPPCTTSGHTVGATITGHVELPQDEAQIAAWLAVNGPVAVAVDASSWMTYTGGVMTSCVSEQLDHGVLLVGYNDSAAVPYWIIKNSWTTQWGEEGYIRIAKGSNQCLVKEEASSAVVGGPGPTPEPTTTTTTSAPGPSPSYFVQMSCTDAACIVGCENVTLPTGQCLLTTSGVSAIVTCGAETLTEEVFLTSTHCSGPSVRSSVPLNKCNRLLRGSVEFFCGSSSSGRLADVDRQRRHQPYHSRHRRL
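Compounds were screened in titration against cruzain (1.5 nM) with 0.01% Triton X-100 to counter colloidal aggregation. Activity was the AMC fluorescence increase over 60 s after adding 2 uM Z-FR-AMC at pH 5.5.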
Cruzain noTriton = blocks cruzain activity in detergent-free assay; Potency, µM, for the others: max response, negative = inhibition, actives largely listed as inhibitors; AID 1476; P25779; purified cruzain, Z-FR-AMC fluorescence, no detergent; 200,000 tested, 2.3% active; active = well fitted curve in the direction sought with a large enough effect; inconclusive = small, poorly fitted or top-dose-only effect, or another doubt; inactive = no such curve, though single readings can be large; an effect the other way counts as inactive or inconclusive;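 note: plate controls were enzyme without inhibitor for no effect and buffer without enzyme for full effect; nearly all actives have a fitted effect of over 40% in size; top concentration of the series not given in the record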
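Detergent-free condition (0.00005% Triton X-100) in acetate buffer pH 5.5 with DTT. 1.5 nM enzyme and compound were pre-mixed 15 min, then 2 uM Z-FR-AMC substrate added; reaction progress from fluorescence change between first and third reads (60 s).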
RE007 growth inh = less growth of the S. pombe RE007 Vpr strain; S. pombe RE007 Vpr strain, BacTiter-Glo ATP luminescence, 24 h; control for the full effect not named in the record; Potency, µM (highest dose often 92.2 µM), for inactives: at the top dose activity change, negative = less growth; 360,000 tested, 0.21% active; AID 651644; active = well fitted falling curve with a large enough effect; inconclusive = small, poorly fitted or top-dose-only effect; inactive = no such curve, though single readings can be large or run the other way;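 note: % is set by controls: 0 for no effect and ±100 for the full control effect; nearly all actives have a fitted effect of over 50% in size; the assay follows cell death caused by Vpr and the record does not say whether a fall means rescue or toxicity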
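Fission yeast strain RE007, carrying one chromosomally integrated HIV-1 vpr copy, was seeded at OD 0.01 in PMG+AL medium with 23 nL pinned compound. After 24 h at 30 °C and 99% humidity, viability was read by BacTiter-Glo luminescence.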
NS1 inh = blocks influenza NS1 protein function. AID 2326. 270,000 tested, 0.4% active. Potency, µM (highest dose often 46.1 µM), for the others: at the highest dose activity, positive = more growth. S. cerevisiae slowed by influenza A NS1, growth recovery by OD600; note: actives are rising curves; nearly all actives have a fitted effect of over 50% in size
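Compounds were scored for reversing the slow growth caused by influenza A NS1 in S. cerevisiae, measured by optical density at 600 nm. Assay medium contained 2% galactose at pH 6.0; NS1-free yeast of the same strain were the positive control.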
StopGo reporter = lowers the luciferase signal of an FMDV 2A StopGo reporter; human cells with a luciferase reporter of 2A StopGo recoding; control for the full effect not named in the record; Potency, µM (doses to about 57.9 µM), without a hit: at the highest dose signal change, negative = less light; 410,000 tested, 1.2% active; AID 1159524; active = well fitted falling curve with a large enough effect; inconclusive = small, poorly fitted or top-dose-only effect; inactive = no such curve, though single readings can be large or run the other way; tested in HEK293T cells; note: % is set by controls: 0 for no effect and ±100 for the full control effect; nearly all actives have a fitted effect of over 45% in size; luciferase light after 4 h
SARS PLP yeast = SARS-CoV PLP inhibition in yeast; S. cerevisiae expressing SARS-CoV PLpro, growth rescue; control for the full effect not named in the record; AID 485353; 330,000 tested, 0.19% active; Potency, µM (series often up to 32.9 µM), for the others: at the top dose activity, positive = growth rescue; note: 0% is about no effect; nearly all actives have a fitted effect of over 55% in size; growth read by luminescence after 48 h
MARV entry inh = blocks Marburg virus binding to or entry into cells; 300,000 tested, 1.8% active; Marburg virus pseudotyped entry inhibition, cell reporter; control for the full effect not named in the record; about a third of the inactives were read at about 46 µM; AID 540276; Potency, µM (series often up to 37.8 µM), without a hit: at the highest dose activity change, negative = inhibition, usual class: inhibitors; active = well fitted inhibition curve with a large enough effect; inconclusive = small, poorly fitted or top-dose-only effect, or effect the other way; inactive = flat fitted curve, though single readings scatter; tested in HEK293 cells; about a fifth of its hits are not listed in these tables; note: % is set by controls: 0 for no effect and ±100 for the full control effect; luciferase read-out
* marks the source's active call; other numbers are inactive results; ? = inconclusive; . = not tested or not shown; & = joins results of further samples; [ ] = another dose, or the depositor's remark. Unless noted, calls come from the whole dose curve; as a rule, active means well fitted rising curve with a large enough effect; inconclusive means small, poorly fitted or top-dose-only effect; inactive means no such curve, though single readings can be large or run the other way. Potency is the fitted concentration of half-maximal effect.

SMILES | LASV entry inh | Cruzain inh Det | Cruzain noTriton | RE007 growth inh | NS1 inh | StopGo reporter | SARS PLP yeast | MARV entry inh
COc1ccc(NC(=O)CN2C(=O)/C(=C3\SC(=S)N(C4CCS(=O)(=O)C4)C3=O)c3ccccc32)cc1 (stereo not drawn) | -22%[46.1 µM] | . | . | 42% | 1% | ? | 0% | ?
Cc1ccc(C(=O)Nc2ccc(NC(=O)c3cccs3)cc2)cc1[N+](=O)[O-] | . | . | . | -10% | -5% | -3% | 0% | .
COc1ccc(NC(=O)CN(C)S(=O)(=O)c2ccc(C(=O)N3CCOCC3)s2)cc1 | 11%[46.1 µM] | 1.4% | 1% | . | . | -18% | . | .
COc1ccccc1N(C)S(=O)(=O)c1ccc(C(=O)N2CCCC(C(F)(F)F)C2)cc1 (stereo not drawn) | -18% | . | . | 17% | . | 0% | -10% | ?
CCOC(=O)c1ccc(NC(=S)NNC(C)(C)C)cc1 | . | . | . | -14% | -42% | 87%[activator] | 0% | 1%
COc1ccccc1Oc1c(C)oc2cc(OC(=O)N(C)C)ccc2c1=O | . | . | . | 13% | -2% | -20% | 1% | .
CCc1ccccc1NC(=O)c1cnccn1 | 9% | -2.7% | -10% | -18% | -13% | -13% | 9% | -1%
CCC(=O)N1N=C(c2cccs2)CC1c1ccc(C)cc1 (stereo not drawn) | . | . | . | 19% | 0% | 7% | -2% | .
O=C(CCc1ccc(O)cc1)N/N=C/c1coc2ccccc2c1=O | ? | . | . | 4% | -1% | -8% | -2% | -1%[46.1 µM]
CCOC(=O)C1CCCCN1Cc1ccc(C(F)(F)F)cc1 (stereo not drawn) | -28% | 0.6% | -1% | 9% | -10% | -11% | 9% | -3%
CC(OC(=O)Cn1cnc2c1c(=O)n(C)c(=O)n2C)C(=O)NCc1ccccc1 (stereo not drawn) | 14% | . | . | 0% | . | -16% | -4% | 9%[46.1 µM]
CCCOc1ccc(C(=O)Nc2cccc(NC(=O)c3cccc(Cl)c3)c2)cc1 | 10%[46.1 µM] | -2.3% | -6% | . | . | 0% | . | .
O=[N+]([O-])c1ccc(/C=N/Nc2cc(Cl)nc(-c3ccccc3)n2)cc1 | -13% | -0.1% | -15% | 19% | 16% | -24% | 3% | -13%
COc1ccccc1N1CC(C)(C)C(=O)N(C(=O)c2ccc(Cl)cc2)C1=S | ? | . | . | -13% | -3% | ? | -1% | ?
O=C(Nc1ccc(N2CCN(C(=O)c3ccc(Cl)cc3)CC2)cc1)c1cc2ccccc2o1 | -13% | -0.2% | ? | -13% | 2% | ? | 7%[6.58 µM] | -25%
COC(=O)c1ccc(C2c3c(oc4ccccc4c3=O)C(=O)N2c2nc(C)c(C(=O)OC)s2)cc1 (stereo not drawn) | 2%[46.1 µM] | -2.1% | 1% | . | . | -5% | . | 9%[46.1 µM]
Cc1ccccc1CN1C(=O)c2ccccc2Sc2ccc(C(=O)OCc3ccco3)cc21 | -12%[46.1 µM] | -3.1% | ? | . | . | -27% | . | .
Cc1ccc(C)c(N(CC(=O)NC2CCCC2)S(=O)(=O)c2ccccc2)c1 | -7% | . | . | 9% | -10% | 25% | ? | ?
CCOCCCNc1nc2c(-c3ccccc3)nnn2c2ccccc12 | 2% | -0.9% | ? | -1% | 7% | -11% | 7% | -10%
COc1ccccc1CNC(=O)C1CCN(c2nc3ccccc3o2)CC1 | 4% | 2.9% | 0% | 12% | 0% | -11% | -4% | ?
COC(=O)C1(C)NC(c2ccc(F)cc2)C2C(=O)N(c3ccc(C)cc3)C(=O)C21 (stereo not drawn) | . | . | . | -9% | 21% | 13% | -7% | .
CC(C)N(Cc1ccccc1)C(=O)CCc1ccccc1 | 26%[46.1 µM] | . | . | 0% | . | 2% | 0% | -13%[46.1 µM]
CC1Cc2ccccc2N1C(=O)COC(=O)CSc1ccc(F)cc1 (stereo not drawn) | -3% | . | . | -27% | . | -23% | 1% | 28%
CCN1C(=O)CSC1=NC12CC3CC(CC(C3)C1)C2 | ? | -0.2% | 4% | -26% | -3% | . | -3% | -12%
CCCn1c(N2CCN(C(=O)Nc3ccccc3)CC2)nc2ccccc21 | 0% | . | . | -8% | -5% | -13% | -1% | -24%[46.1 µM]

(continued)
SMILES | LASV entry inh | Cruzain inh Det | Cruzain noTriton | RE007 growth inh | NS1 inh | StopGo reporter | SARS PLP yeast | MARV entry inh
CC1=CC=CC2=NC(=O)CC(C)(C(=O)N(CC(=O)NC(C)C)C3CCCC3)N12 (stereo not drawn) | 32%[14.3 µM] | -10% | -11% | 11% | -10% | 8% | 5% | 16%
CCc1cccc(NC(=O)c2cnn(-c3ccccc3)c2C)c1 | . | . | . | -1% | -73% | 33%[activator] | -13% | .
O=C(NN1C(=O)C2C3C=CC([C@H]4CC34)[C@@H]2C1=O)c1ccc(Br)cc1 (stereo partly drawn) | . | . | . | 7% | 0% | -13% | -1% | .
O=C(CNC(=O)c1ccc(Cl)cc1)NCC(F)(F)F | 8% | 2.0% | 5% | 6% | 13% | 0% | 11% | 1%
CCOc1cc(/C=N/O)ccc1OCc1ccc([N+](=O)[O-])cc1 | 1% | -9.9% | -20% | -20% | 4% | -6% | -2% | ?
CCCn1c(SCC(=O)Nc2nnc(-c3ccccc3)s2)nnc1-c1ccccn1 | 10% | 0.7% | ? | 0% | -43% | 7% | -2% | 0%&27%
COc1ccc(/C=N/NC(C)(C)C)c(OC)c1 | -9% | . | . | 20% | . | -8% | 1% | -1%[46.1 µM]
Cc1nc2scc(C)n2c(=O)c1S(=O)(=O)NCc1ccccc1Cl | -14%[46.1 µM] | -2.5% | -5% | 10% | -4% | 12%&22% | 26% | ?
Cn1cccc1/C=C1\SC(=O)N(c2ccc(O)cc2)C1=O | ? | -3.6% | -29% | 3% | . | 16% | 26% | ?
Cc1ccc(-c2csc(NC(=O)C3CCN(S(=O)(=O)c4cccs4)CC3)n2)cc1 | ? | -4.4% | ? | . | 13% | ? | -1% | ?
CCOC(=O)C1CCCN(Cc2ccc(-c3ccccc3)cc2)C1 (stereo not drawn) | . | . | . | -14% | -29% | -30% | -1% | .
CCc1ccc(C(=O)NC(Cc2c[nH]c3ccccc23)C(=O)OCC(=O)c2ccc(Br)cc2)cc1 (stereo not drawn) | -23%[46.1 µM] | -5.1% | 16µM* | . | . | 31%[activator] | . | .
Cc1onc(-c2ccccc2)c1C(=O)Nc1ccnn1C1CCCCC1 | -1% | -1.5% | -3% | 21% | -3% | 0% | 1% | -20%
CC(C)(C)c1ccc(Cn2nnc3c(=O)[nH]c(C4CCN(C(=O)c5ccco5)CC4)nc32)cc1 | ? | . | . | 10% | ? | ? | 0% | ?
Cc1ccccc1C(=O)Nc1ccc(C(=O)OCc2cc(=O)n3nc(C4CC4)sc3n2)cc1 | ? | -1.6% | ? | . | . | 13µM* | . | .
CCc1nc(N2CCOCC2)c(C#N)c2c1CCCC2 | -19% | -6.3% | 2% | -27% | -15%[9.22 µM] | ? | 1% | -27%&-27%
CN1CCC(OC(=O)COc2ccc(F)cc2)CC1 | -19% | . | . | -1% | . | -2% | 2% | 4%
CN=Cc1cc(-c2ccccc2)sc1O | 7% | 2.7% | -6% | -9% | -1% | . | -9% | 0%
CC(=O)c1c(C)nc(-c2ccccc2)nc1NC(=O)Cc1ccccc1 | -2% | . | . | 2% | -6% | -11% | 0% | -13%[46.1 µM]
Cc1onc(-c2ccccc2)c1C(=O)NCc1ccc(Cl)cc1 | . | . | . | 3% | -2% | -22% | 2% | .
O=C(NCc1cccnc1)c1csc2c1CCCC2 | 3% | -1.7% | -14% | -8% | 7% | -3% | 4% | -15%
Cc1ccc(-c2nc(Nc3ccc(O)cc3)c3ccccc3n2)cc1 | ? | . | . | -15% | -2% | 35%[activator] | -7% | ?
O=C1CCN(Cc2ccc(Cl)cc2)N1 | . | . | . | 15% | 1% | 11% | -1% | .
CC(=O)c1cccc(NC(=O)Cn2c(=O)oc3cc(S(=O)(=O)NCc4ccccc4)ccc32)c1 | 1%[46.1 µM] | -8.4% | -2% | . | . | 29% | . | .
Cc1nn(C(=O)c2ccccc2)c(C)c1Sc1ccc(Cl)cc1 | 0%[46.1 µM] | -5.9% | 3% | . | . | 28µM* | . | .

(list continues)
SMILES | LASV entry inh | Cruzain inh Det | Cruzain noTriton | RE007 growth inh | NS1 inh | StopGo reporter | SARS PLP yeast | MARV entry inh
O=C(CCc1nc2cccnc2n1Cc1ccccc1)NCCc1ccc(Cl)cc1 | 3% | -0.9% | 22% | 0% | -9% | -25% | 2% | 11%
CCOc1ccc(C(=O)OC(C)CN2CCN(C)CC2)cc1 (stereo not drawn) | -6% | . | . | 10% | -1% | 11% | -1% | -2%
O=C(C/C=N/OCc1ccc(Cl)cc1Cl)c1ccccc1 | 0% | -3.3% | -6% | -5% | 0% | 19% | 2% | -11%
CSc1cccc(NC(=S)N(Cc2ccc(C)cc2)Cc2cccnc2)c1 | 5% | . | . | -3% | . | 2% | 12% | ?
CCN1C(=NCc2cc(OC)c(OC)c(OC)c2)N[C@@H](c2ccccc2)C(C(=O)OC)=C1C | . | . | . | -2% | -1% | 1% | -5%&-19% | .
CCOC(=O)C1CCN(/C=C2\C(=O)NC(=S)N(CC)C2=O)CC1 | . | . | . | -8% | 12% | 3% | 0% | .
Cc1ccc(/C=C/C(=O)Nc2ccc(S(=O)(=O)Nc3onc(C)c3C)cc2)cc1 | 3% | . | . | 6% | -42% | 3% | -3% | -7%[46.1 µM]
COc1ccccc1CNCc1ccc(C)cc1 | . | . | . | -6% | 27% | -2% | 8% | .
Cc1ccc(C(=O)OCC(=O)NCc2cccs2)cc1C | 0% | . | . | -11% | -2% | 21% | -1% | 0%[46.1 µM]
COc1ccccc1NS(=O)(=O)c1ccc(C(=O)N2CCN(c3ccccc3O)CC2)cc1 | -22% | . | . | -15% | . | ? | -3% | -25%
CCOc1cc(C(=O)OCC(=O)c2c(C)[nH]c3ccccc23)ccc1OCC(=O)N1CCOCC1 | -6% | -6.1% | ? | 15% | -32% | ? | -1% | -6%&-6%
COc1ccccc1NS(=O)(=O)c1cc([N+](=O)[O-])ccc1N/N=C/c1sc(N2CCOCC2)nc1-c1ccccc1 | -2% | -1.7% | 6.3µM* | 2% | 7% | -21% | 21% | 22%
Nc1nc(Sc2ccc(C(F)(F)F)cn2)n[nH]1 | -3% | -1.6% | 10% | 9% | 0% | -7% | 3% | 1%[46.1 µM]
CC1CCN(S(=O)(=O)c2ccc3c(c2)N(CC(=O)NC(C)c2ccccc2)C(=O)CS3)CC1 (stereo not drawn) | . | -3.6% | 4% | . | . | -5% | . | -6%[46.1 µM]
